LASV entry inh – Lassa virus entry inhibition. AID 540256. Potency, µM (titrated, usually from 37.9 µM), for inactives: at the highest dose activity change, negative = inhibition, hits mostly inhibitors. hit rate 1.2% among 300,000. Lassa virus pseudotype entry inhibition, cell reporter; control for the full effect not named in the record; active means well fitted inhibition curve with a large enough effect; inconclusive means small, poorly fitted or top-dose-only effect, or effect the other way; inactive means flat fitted curve, though single readings scatter; tested in HEK293 cells; note: % is set by controls: 0 for no effect and ±100 for the full control effect; nearly all actives have a fitted effect of over 50% in size; luciferase read-out
2A StopGo – FMDV 2A StopGo reporter, luciferase signal; human cells with a luciferase reporter of 2A StopGo recoding; control for the full effect not named in the record; Potency, µM (doses to about 57.9 µM), without a hit: top-dose signal change, negative = less light; hit rate 1.2% among 410,000; AID 1159524; active = well fitted falling curve with a large enough effect; inconclusive = small, poorly fitted or top-dose-only effect; inactive = no such curve, though single readings can be large or run the other way; tested in HEK293T cells; note: % is set by controls: 0 for no effect and ±100 for the full control effect; nearly all actives have a fitted effect of over 45% in size; luciferase light after 4 h
Cruzain inh Det – inhibitors of Trypanosoma cruzi cruzain with detergent; Potency, µM, for inactives: max response, negative = inhibition, most hits filed as inhibitors; P25779; purified cruzain, Z-FR-AMC fluorescence, 0.01% Triton; hit rate 0.43% among 200,000; active = well fitted curve in the direction sought with a large enough effect; inconclusive = small, poorly fitted or top-dose-only effect, or another doubt; inactive = no such curve, though single readings can be large; an effect the other way counts as inactive or inconclusive;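 note: plate controls were neutral wells for no effect and buffer without enzyme for full effect; nearly all actives have a fitted effect of over 40% in size; top concentration of the series not given in the record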
Target sequence (P25779 123-467 limits assumed): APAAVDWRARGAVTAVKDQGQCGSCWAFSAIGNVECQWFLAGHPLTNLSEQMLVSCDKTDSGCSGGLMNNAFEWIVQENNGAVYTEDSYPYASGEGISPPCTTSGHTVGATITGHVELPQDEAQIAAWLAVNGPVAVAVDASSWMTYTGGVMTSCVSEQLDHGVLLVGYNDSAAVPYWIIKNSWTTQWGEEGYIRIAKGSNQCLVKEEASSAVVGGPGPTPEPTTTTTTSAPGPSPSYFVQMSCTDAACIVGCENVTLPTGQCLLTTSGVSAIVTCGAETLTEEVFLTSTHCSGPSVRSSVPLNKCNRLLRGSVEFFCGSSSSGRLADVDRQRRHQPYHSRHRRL
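Cysteine protease activity tested under reducing, mildly acidic conditions (100 mM sodium acetate pH 5.5, 5 mM DTT) plus 0.01% Triton X-100. Cruzain 1.5 nM; substrate Z-FR-AMC 2 uM; 15 min compound preincubation at room temperature.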
NS1 inh – influenza NS1 inhibition | Potency, µM (highest dose often 46.1 µM), without a hit: top-dose activity, positive = more growth | hit rate 0.4% among 270,000 | S. cerevisiae slowed by influenza A NS1, growth recovery by OD600; note: actives are rising curves; nearly all actives have a fitted effect of over 50% in size
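Recovery from NS1-induced slow growth read by OD600 in budding yeast switched to galactose assay medium (pH 6.0, -URA) at 1:100 dilution. Compound 23 nl per well; the matching strain lacking NS1 serves as control.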
RE007 growth inh – less growth of the S. pombe RE007 Vpr strain | S. pombe RE007 Vpr strain, BacTiter-Glo ATP luminescence, 24 h; control for the full effect not named in the record | Potency, µM (series often up to 92.2 µM), for inactives: top-dose activity change, negative = less growth | hit rate 0.21% among 360,000 | AID 651644; active = well fitted falling curve with a large enough effect; inconclusive = small, poorly fitted or top-dose-only effect; inactive = no such curve, though single readings can be large or run the other way;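 note: % is set by controls: 0 for no effect and ±100 for the full control effect; nearly all actives have a fitted effect of over 50% in size; the assay follows cell death caused by Vpr and the record does not say whether a fall means rescue or toxicity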
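Fission yeast RE007 carrying one integrated HIV-1 vpr copy, seeded at OD 0.01 in PMG+AL medium with 23 nL pinned compound. Grown 24 h at 30 degrees; viability read by BacTiter-Glo luminescence after 5 min.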
SARS PLpro yeast – blocks SARS-CoV papain-like protease in a yeast assay. S. cerevisiae expressing SARS-CoV PLpro, growth rescue; control for the full effect not named in the record. Potency, µM (top dose mostly 32.9 µM), inactives show top-dose activity, positive = growth rescue. hit rate 0.19% among 330,000; note: 0% is about no effect; nearly all actives have a fitted effect of over 55% in size; growth read by luminescence after 48 h
MARV entry inh – inhibitors of Marburg virus binding or cell entry | Marburg virus pseudotyped entry inhibition, cell reporter; control for the full effect not named in the record; about a third of the inactives were read at about 46 µM | Potency, µM (doses to about 37.8 µM), without a hit: at the highest dose activity change, negative = inhibition, most hits filed as inhibitors | hit rate 1.8% among 300,000 | AID 540276; active = well fitted inhibition curve with a large enough effect; inconclusive = small, poorly fitted or top-dose-only effect, or effect the other way; inactive = flat fitted curve, though single readings scatter; tested in HEK293 cells; about a fifth of its hits are not listed in these tables; note: % is set by controls: 0 for no effect and ±100 for the full control effect; luciferase read-out
Cruzain inh noDet – blocks cruzain activity in detergent-free assay; P25779; purified cruzain, Z-FR-AMC fluorescence, no detergent; Potency, µM, for the others: max response, negative = inhibition, hits mostly inhibitors; hit rate 2.3% among 200,000; active = well fitted curve in the direction sought with a large enough effect; inconclusive = small, poorly fitted or top-dose-only effect, or another doubt; inactive = no such curve, though single readings can be large; an effect the other way counts as inactive or inconclusive;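 note: plate controls were enzyme without inhibitor for no effect and buffer without enzyme for full effect; nearly all actives have a fitted effect of over 40% in size; top concentration of the series not given in the record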
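Purified cruzain at 1.5 nM, pre-incubated 15 min with compound at room temperature in 100 mM sodium acetate pH 5.5, 5 mM DTT, 0.00005% Triton X-100. Reaction started with 2 uM Z-FR-AMC; AMC fluorescence increase over 60 s gives rate.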
An asterisk follows results filed as active; ? = inconclusive; · = no result given; [ ] = dose if it differs, or a comment. Unless noted, calls come from the whole dose curve; as a rule, active means well fitted rising curve with a large enough effect; inconclusive means small, poorly fitted or top-dose-only effect; inactive means no such curve, though single readings can be large or run the other way. Potency is the fitted concentration of half-maximal effect.

Compound	LASV entry inh	2A StopGo	Cruzain inh Det	NS1 inh	RE007 growth inh	SARS PLpro yeast	MARV entry inh	Cruzain inh noDet
Cc1cc(N2CCOCC2)nc(SCC(=O)OCc2ccccc2)n1	14.2%	-22.8%	·	·	-5.0%	-0.2%	-4.9%	·
CCc1ccc(C(C)NC(=O)C2CCCO2)cc1 (centres undefined)	-3.5%[46.1 µM]	0.7%	·	0.2%	1.5%	9.0%	?	·
COc1cccc(NC(=S)N(CCCN2CCCC2)Cc2cccn2Cc2ccc(Cl)cc2)c1	?	-22.4%	·	·	-0.2%	-1.4%	?	·
O=S(=O)(c1cccc(F)c1)N1CCC(Oc2ccc(-n3cnnn3)cc2)CC1	1.1%[46.1 µM]	?	-2.9%	·	·	·	-14.2%[46.1 µM]	-0.8%
C=C(c1cccc2ccccc12)P(=O)(O)O	19.6%	-25.8%	1.6%	4.2%	14.8%	-0.1%	-11.8%[46.1 µM]	-20.8%
CCCCCOC(=O)c1ccc(NC(=O)c2ccco2)cc1	-17.5%	?	-11.7%	-82.4%	?	-36.9%	-13.1%	-11.6%
Cc1nc(Cl)c(C(=O)NCCc2ccccc2)c(C)c1[N+](=O)[O-]	·	-22.6%	·	-1.9%	-5.7%	1.3%	·	·
O=C(NC1CCCc2c1cnn2-c1ccccc1F)c1ccccn1 (centres undefined)	·	-20.8%	·	-6.7%	32.0%	-0.4%	·	·
N#Cc1nc(-c2ccc(COc3ccccc3)o2)oc1N1CCCCC1	-22.6%[46.1 µM]	-5.7%	-19.9%	·	·	·	?	-3.8%
Cc1c2c(n3c(nc4ccccc43)c1C#N)N(c1ccccc1)CC2	4.1%	·	0.9%	-1.3%	·	-2.9%	28.8%	-10.2%
COc1ccc(OC)c(NC(=O)CSc2nncc3ccc(OC)c(OC)c23)c1	11.9%	-2.3%	·	?	6.9%	0.2%	?	·
CC(C)Oc1ccc(C(=O)N2CCCCC2CCN2CCCCC2)cc1 (centres undefined)	-10.6%[46.1 µM]	-8.0%	2.4%	·	·	·	?	-5.2%

One compound at a time, from the list above.
Cc1c2c(n3c(nc4ccccc43)c1C#N)N(c1ccccc1)CC2 is listed with LASV entry inh: 4.1%; 2A StopGo: ·; Cruzain inh Det: 0.9%; NS1 inh: -1.3%; RE007 growth inh: ·; SARS PLpro yeast: -2.9%; MARV entry inh: 28.8%; Cruzain inh noDet: -10.2%
Cc1nc(Cl)c(C(=O)NCCc2ccccc2)c(C)c1[N+](=O)[O-] is listed with LASV entry inh: ·; 2A StopGo: -22.6%; Cruzain inh Det: ·; NS1 inh: -1.9%; RE007 growth inh: -5.7%; SARS PLpro yeast: 1.3%; MARV entry inh: ·; Cruzain inh noDet: ·
N#Cc1nc(-c2ccc(COc3ccccc3)o2)oc1N1CCCCC1 is listed with LASV entry inh: -22.6%[46.1 µM]; 2A StopGo: -5.7%; Cruzain inh Det: -19.9%; NS1 inh: ·; RE007 growth inh: ·; SARS PLpro yeast: ·; MARV entry inh: ?; Cruzain inh noDet: -3.8%

Back to the main list with the two entries that preceded the break.
Compound	LASV entry inh	2A StopGo	Cruzain inh Det	NS1 inh	RE007 growth inh	SARS PLpro yeast	MARV entry inh	Cruzain inh noDet
COc1ccc(OC)c(NC(=O)CSc2nncc3ccc(OC)c(OC)c23)c1	11.9%	-2.3%	·	?	6.9%	0.2%	?	·
CC(C)Oc1ccc(C(=O)N2CCCCC2CCN2CCCCC2)cc1 (centres undefined)	-10.6%[46.1 µM]	-8.0%	2.4%	·	·	·	?	-5.2%
CC(C)(C)c1[nH]nc2c1C(c1ccco1)C(C#N)=C(N)O2 (centres undefined)	-13.0%	-17.1%	·	1.0%	2.9%	-1.8%	10.3%[46.1 µM]	·
COc1ccc(S(=O)(=O)N2CCC(n3c(C(F)(F)F)nc4cccnc43)CC2)cc1OC	-0.3%[46.1 µM]	-19.2%	-2.4%	·	·	·	·	?
Cc1ccnc(NC(=O)COC(=O)C23CC4CC(CC(C4)C2)C3)n1	·	-1.2%	·	5.7%	5.9%	0.0%	-7.8%	·
CCn1c(SCC(=O)NC2CCCCC2)nnc1-c1cc2cccc(OC)c2o1	20.2%	-28.5%	7.0%	-16.9%	-11.6%	1.2%	-17.8%[46.1 µM]	-7.8%
C=CCN1C(=O)CN=C1Nc1cc(C)ccc1C	20.2%	-7.1%	3.5%	-2.0%	8.6%	-0.1%	5.6%	3.5%
Cc1cccc(NC(=O)CSc2nnc(CNC(=O)c3ccc(S(=O)(=O)N(C)C)cc3)n2-c2ccccc2)c1	?	5.9%	3.7%	-18.1%	-4.3%	-5.8%	?	?
Nc1ccc2nc(-c3ccc(O)cc3)sc2c1	?	?	106.5%[activator]	·	·	·	·	?
CN1CCN(S(=O)(=O)c2cccc(C(=O)NC3CCCc4ccccc43)c2)CC1 (centres undefined)	-4.2%	6.7%	-5.2%	-10.4%	4.3%	-2.9%	-4.8%	-14.0%
Cc1ccc(NC(=O)CN2CCc3ccccc3C2)cc1	26.0%	37.2%[activator]	1.4%	-53.4%	-20.4%	5.7%	11.0%	7.5%
CNC(=O)/C(C#N)=C/c1c(N2CCN(C)CC2)nc2c(C)cccn2c1=O	·	-8.0%	·	3.3%	-11.6%	-2.6%	·	·
COc1cccc(CC(=O)N2CCN(c3ccccc3[N+](=O)[O-])CC2)c1	12.6%[46.1 µM]	-14.1%	·	·	-18.3%	1.1%	-24.1%[46.1 µM]	·
Cc1ccc(C(=O)OCCc2c(C)[nH]n(-c3ccccc3)c2=O)cc1	11.0%	-4.7%	6.7%	17.5%	-0.1%	-0.1%	1.5%	-2.6%
Cc1c(Br)c([N+](=O)[O-])nn1CC(=O)Nc1ccc(Cc2ccncc2)cc1	?	?	-10.5%	?	11.6%	-10.8%	?	-17.5%
Cc1ccc2oc(C(=O)Nc3cccc(-c4nc5ccccc5s4)c3)c(C)c2c1	19.2%[46.1 µM]	23.1%	-0.9%	·	·	·	-3.7%[46.1 µM]	-4.5%
CC(C)(C)OC(=O)N1CCC(c2c(C(=O)N3CCCCC3)cnn2-c2ccc(F)cc2F)CC1	?	-12.5%	-1.3%	·	·	·	·	?
Cc1cc(S(=O)(=O)Nc2ccc(C(=O)NCC(C)(C)N3CCOCC3)cc2)ccc1F	·	-17.1%	·	-2.6%	6.5%	-3.0%	·	·
COC(=O)c1c(-c2ccc(C)cc2)csc1NC(=O)Cc1ccc(OC)c(OC)c1	?	?	-8.8%	19.3%	-12.9%	2.5%	?	28.4%
Cc1cc2oc(=O)c3c(c2cc1OCc1nn[nH]n1)CCCC3	1.7%	12.1%	-8.5%	0.9%	15.8%	-4.5%	7.9%	-0.8%
COC(=O)c1cccc(Cn2c(Cl)c(/C=N/NC(=O)c3ccco3)sc2=O)c1	·	12.2%	·	10.5%	-12.2%	-0.6%	·	·
N#CCCn1cc(C(=O)Nc2cccc(C(=O)O)c2)c(-c2ccc(Cl)cc2)n1	·	-20.7%	·	13.4%	3.6%	1.1%	·	·
CCc1ccc(NC(=O)CSc2nc(C)c(C(=O)Nc3ccccc3)c(-c3ccc(OC)c(OC)c3)c2C#N)cc1	-0.5%[46.1 µM]	6.2%	-2.9%	·	·	·	·	-21.0%
CCN1CCc2c(sc(NC(=O)c3ccc(S(=O)(=O)N4CCOCC4)cc3)c2C(=O)OC)C1	?	-2.0%	-2.7%	-2.0%	-1.9%	-0.8%	10µM*	-3.7%
CCCc1nn2c(=O)cc(COc3ccc(NC(=O)c4ccco4)cc3)nc2s1	·	-3.3%	·	-0.6%	4.2%	-0.7%	·	·
Cn1c(=O)c2c(nc(CN3CCN(C(=O)c4ccco4)CC3)n2Cc2ccc(F)cc2)n(C)c1=O	7.6%	·	3.7%	-11.5%	12.8%	·	-23.7%	?
COc1cccc(-c2nc(-c3ccc(NC(=O)Cc4ccccc4OC)cc3)no2)c1	-8.9%	18.2%	-5.1%	1.3%	-4.9%	3.1%	-4.5%	-25.7%
O=C(CCN=C1NS(=O)(=O)c2ccccc21)OCc1cccc(Cl)c1	-13.2%[46.1 µM]	2.0%	·	·	9.2%	2.7%	-9.2%	·
CC1=CN2C(=N)/C(=C/c3ccc(Sc4ccc(C)cc4)o3)C(=O)N=C2S1	0.8%	?	-5.3%	-16.8%	8.3%	-10.8%	-21.3%	?
O=C(c1ccc2ccccc2c1)C1CCCN(C(=O)c2cnccn2)C1 (centres undefined)	·	-11.1%	·	-2.8%	-0.9%	-1.2%	·	·
C/C(=N\NC(=O)c1ccc([N+](=O)[O-])cc1)c1cccc([N+](=O)[O-])c1	-6.4%[46.1 µM]	2.3%	·	·	10.4%	-0.6%	-19.9%[46.1 µM]	·
Cc1cccc(C)c1NC(=O)CN(C)c1ccc(C(F)(F)F)cn1	-3.9%	-30.0%	4.3%	16.4%	1.1%	12.2%	-30.6%	-4.1%
O=C(NN1C(=O)/C(=C/c2cccs2)SC1=S)c1cccnc1	·	-3.4%	·	2.3%	6.6%	0.2%	·	·
N#Cc1ccccc1CSc1nnc(-c2ccncc2)o1	?	16.6%	·	-0.1%	28.9%	1.4%	?	·
CC(C)CN(C(=O)C1CCCO1)c1c(N)n(CC(C)C)c(=O)[nH]c1=O (centres undefined)	12.8%	-9.7%	·	·	-7.8%	1.0%	10.9%	·
COc1ccc(-c2nc(CN3CCC(C(=O)NCCN(CC(C)C)CC(C)C)CC3)c(C)o2)cc1OC	2.0%[46.1 µM]	-9.0%	3.5%	·	·	·	?	5.4%
CCN(CC)S(=O)(=O)c1cccc(NC(=O)c2ccccc2Br)c1	-17.6%	0.9%	·	·	4.0%	-2.8%	-18.4%[46.1 µM]	·
COc1ccc(-c2csc(NC(=O)CSCc3c(C)noc3C)n2)c(OC)c1	?	?	·	·	-2.8%	-7.8%	-0.7%	·

Compound activity deposited in PubChem BioAssay by National Center for Advancing Translational Sciences (NCATS).
